PKD1 kinase inh – inhibitors of human PKD1 kinase | 200,000 compounds, 0.056% hits | Q15139 | PKD1 kinase fluorescence polarization assay | inhibition, %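 (about 10 µM by stock and volumes)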;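 active means inhibition of 50% or more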;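 further: controls were vehicle for no effect and a reference inhibitor for full effect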
RGS16-Gao – regulators of human RGS16-Galphao interaction; O15492+P09471; bead-based flow cytometry RGS16-Galphao binding, fluorescence; actives lie on both sides; binding response (% of control), % at 10 µM; 220,000 compounds, 0.38% hits; AID 1441;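 active means below 25% or above 175%, edge rows of some plates excepted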;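 further: Galphao activated by GDP with aluminum fluoride before binding; 100% = wells without compound and 0% = beads without RGS; some results beyond the cut were filed as inactive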
Target sequence (O15492 whole entry, looked up): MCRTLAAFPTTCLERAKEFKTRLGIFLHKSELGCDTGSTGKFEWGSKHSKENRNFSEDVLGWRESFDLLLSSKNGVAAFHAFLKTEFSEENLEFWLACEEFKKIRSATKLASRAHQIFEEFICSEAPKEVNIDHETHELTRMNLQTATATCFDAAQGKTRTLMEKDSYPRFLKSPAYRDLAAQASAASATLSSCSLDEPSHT
Target sequence (P09471 whole entry, looked up): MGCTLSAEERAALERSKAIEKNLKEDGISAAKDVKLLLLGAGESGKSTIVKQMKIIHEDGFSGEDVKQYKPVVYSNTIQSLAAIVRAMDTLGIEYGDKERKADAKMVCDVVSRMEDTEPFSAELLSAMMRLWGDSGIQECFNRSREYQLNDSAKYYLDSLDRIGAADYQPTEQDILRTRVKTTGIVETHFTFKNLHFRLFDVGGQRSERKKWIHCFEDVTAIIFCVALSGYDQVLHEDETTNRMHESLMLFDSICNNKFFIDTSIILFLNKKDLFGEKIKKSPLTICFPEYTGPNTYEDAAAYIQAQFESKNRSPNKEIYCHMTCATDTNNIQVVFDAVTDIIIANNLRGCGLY
Insulin prom inh – TRM-6 insulin promoter activity inhibition; TRM-6 cells (human fetal islet line), insulin promoter-eGFP reporter, imaging; reporter expression induced with tamoxifen; inhibition, % at 2 µM; 130,000 compounds, 0.9% hits;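 active means inhibition above the mean plus 3 SD, with well images judged a real hit on visual review, cut at about 60% in these data, passing the limit was not always enough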
GALR2 ag – GALR2 (human) receptor agonism. O43603. GALR2-expressing cells, agonist activation read-out. activation, %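 (tested at 5 µM)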. 140,000 compounds, 0.48% hits. AID 803;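 active means above mean plus 3 SD of all compounds, about 5% in these data, not always enough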;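 further: 0% = vehicle buffer wells and 100% = reference agonist at full effect; tested in CHO reporter cells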
Target sequence (O43603 whole entry, looked up): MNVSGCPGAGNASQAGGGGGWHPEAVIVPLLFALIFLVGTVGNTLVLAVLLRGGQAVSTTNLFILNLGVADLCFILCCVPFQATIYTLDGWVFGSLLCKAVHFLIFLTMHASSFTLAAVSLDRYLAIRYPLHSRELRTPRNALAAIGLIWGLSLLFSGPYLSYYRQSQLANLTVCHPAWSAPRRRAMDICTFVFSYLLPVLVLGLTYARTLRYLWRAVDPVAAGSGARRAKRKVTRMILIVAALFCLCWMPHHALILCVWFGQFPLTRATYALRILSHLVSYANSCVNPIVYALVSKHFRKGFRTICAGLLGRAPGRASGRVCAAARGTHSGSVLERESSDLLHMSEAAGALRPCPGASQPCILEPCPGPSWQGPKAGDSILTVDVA
HSV replic up – HSV replication enhancement; HSV replication augmentation in cells, fold increase; maximum fold increase; 220,000 compounds, 0.005% hits; AID 1956;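 active means peak rise of 1.5-fold or more in the series; tested in PC3 cells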;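 further: first round at 10 µM; read as green reporter fluorescence; hits show the peak of a series up to 25 µM; 1 = signal of infected wells without compound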
Insulin prom inh cell count – recorded beside Insulin prom inh, whose call it bears; normalized cell count, %; measured here: cell count, toxicity; reference of the scale not given here;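 cells exposed to compound for 48 h; stained nuclei by imaging scaled within each plate; lower means fewer cells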
HSV replic up primary fold – also measured in HSV replic up; calls as there; fold increase; compound at 10 µM; measured here: primary screen fold increase 10 uM; tested in PC3 cells;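 GFP signal in the first replicate; 1 = infected wells without compound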
Active calls of the source: *; i = inactive; nt = no result given.

Sample of the layout, five compounds:
SMILES | PKD1 kinase inh | RGS16-Gao | Insulin prom inh | Insulin prom inh cell count | GALR2 ag | HSV replic up | HSV replic up primary fold
O=C(NNc1nc2c(F)cccc2s1)C1=COCCO1 | -5 | 104 | -17 | 216 | nt | i | 1
Cc1ccccc1S(=O)(=O)Nc1nc2ccccc2nc1N1CCc2ccccc2C1 | 2 | 102 | 22 | 114 | -0.6 | i | 1
CCSc1n[nH]c2nc3c(c(=O)n12)C1(CCCC1)Cc1ccccc1-3 | 4 | 108 | 5 | 196 | 0.6 | i | 0.93
O=C(CC1SC(=Nc2ccccc2)N(CCO)C1=O)Nc1ccccc1 (stereo unspecified) | -4 | 103 | nt | nt | nt | i | 0.98
CCCn1c(=O)c2ccccc2n2c(SCC(=O)NCc3cccs3)nnc12 | -4 | 104 | nt | nt | -1.2 | i | 0.91

The whole of this part, from the first entry:
SMILES | PKD1 kinase inh | RGS16-Gao | Insulin prom inh | Insulin prom inh cell count | GALR2 ag | HSV replic up | HSV replic up primary fold
O=C(NNc1nc2c(F)cccc2s1)C1=COCCO1 | -5 | 104 | -17 | 216 | nt | i | 1
Cc1ccccc1S(=O)(=O)Nc1nc2ccccc2nc1N1CCc2ccccc2C1 | 2 | 102 | 22 | 114 | -0.6 | i | 1
CCSc1n[nH]c2nc3c(c(=O)n12)C1(CCCC1)Cc1ccccc1-3 | 4 | 108 | 5 | 196 | 0.6 | i | 0.93
O=C(CC1SC(=Nc2ccccc2)N(CCO)C1=O)Nc1ccccc1 (stereo unspecified) | -4 | 103 | nt | nt | nt | i | 0.98
CCCn1c(=O)c2ccccc2n2c(SCC(=O)NCc3cccs3)nnc12 | -4 | 104 | nt | nt | -1.2 | i | 0.91
Fc1ccccc1-c1[nH]ncc1-c1nnnn1-c1ccccc1 | nt | 98 | nt | nt | nt | i | 1.1
NC(=O)c1ccc([N+](=O)[O-])cc1SCc1ccccc1 | -6 | 108 | 13 | 128 | -0.2 | i | 0.92
O=C(c1cccc(F)c1)n1nnc2ccccc21 | -6 | 104 | 81* | 43* | -0.8 | i | 1.1
CCC(CC)C(=O)c1c[nH]c(C(=O)NCc2ccncc2)c1 | -1 | 107 | -7 | 116 | nt | i | 0.99
Clc1ccc(-c2onc3c2CCCC3)cc1 | -9 | 95 | nt | nt | 0.9 | i | 0.86
COc1ccc2nc3cc(Cl)ccc3c(Nc3cc(C(C)C)c(O)cc3C)c2c1 | nt | 98 | nt | nt | nt | i | 0.56
O=c1[nH]c(CN2CCN(c3ccccc3O)CC2)nc2scc(-c3ccccc3Cl)c12 | nt | 103 | nt | nt | nt | i | 1.1
C=CCn1cc(C(=O)OCC)c(=O)c2cc(F)c(F)cc21 | nt | 108 | nt | nt | nt | i | 1
Cc1cc2c(cc1C)-c1nnc(-c3ccc4ccccc4n3)n1C(C)(C)C2 | 2 | 95 | 0 | 107 | -0.7 | nt | nt
CCOC(=O)N1CCN(Cc2oc(CO)cc(=O)c2O)CC1 | 3 | 100 | 6 | 91 | 0.4 | i | 1
Cc1c(C(=O)O)oc2ccc(S(=O)(=O)N(CC(C)C)CC(C)C)cc12 | -14 | 67 | 19 | 62 | -0.7 | i | 0.93
O=C(NCc1cccnc1)c1ccc(-c2cc(Cl)ccc2Cl)o1 | 2 | 102 | nt | nt | nt | i | 0.77
CCN(Cc1ccncc1)C(=O)CSc1ccc2ccccc2c1 | -5 | 102 | nt | nt | nt | i | 0.93
CCOC(=O)c1sc(NC(=O)/C=C/c2cnn(CC)c2C)c(C(=O)OCC)c1C | 7 | 84 | nt | nt | -0.9 | i | 1
Fc1ccc(-c2csc(=S)[nH]2)cc1 | -4 | 92 | -279 | 74 | nt | i | 1
CNC(=O)CC(C(=O)O)c1ccc(OCC(C)C)cc1 (stereo unspecified) | -2 | 85 | 15 | 135 | -0.3 | nt | nt
CCN(CC)c1ccc(C(=O)OCC(=O)NC2CCCCC2C)cc1 (stereo unspecified) | 3 | 106 | -16 | 66 | -1.9 | i | 1.1
Cc1cccc(NC(=S)NC2CC3C=CC2C3)c1 (stereo unspecified) | nt | 108 | nt | nt | nt | i | 0.97
Cc1ccc(O)c(-c2cc(-c3ccccc3C)[nH]n2)c1 | -2 | 77 | nt | nt | -0.4 | nt | nt
O=C1OC(Cc2ccccn2)C(=O)C1=C1SCCS1 (stereo unspecified) | 2 | 99 | -3 | 135 | 0.4 | i | 0.98
CCc1nnc(NC(=O)C(NS(=O)(=O)c2ccc3c(c2)OCCO3)C(C)C)s1 (stereo unspecified) | -11 | 97 | nt | nt | -0.9 | i | 0.89
COc1ccc(-c2cc(C#N)nc(Oc3ccc(Cl)cc3)n2)cc1 | -6 | 100 | nt | nt | 0.7 | i | 0.93
CCOc1ccc(NC(=O)CN(C)Cc2cc(=O)n3c(-c4ccccc4)csc3n2)cc1OCC | -9 | 107 | nt | nt | nt | i | 0.96
COc1ccc(C2C(C(=O)Nc3ccc4c(c3)OCCO4)c3ccccc3C(=O)N2C)cc1 (stereo unspecified) | -4 | 110 | -10 | 123 | -1.8 | i | 0.8
Cc1ccc(-c2noc(CN(C(=O)CCN3C(=O)c4ccccc4C3=O)C(C)C)n2)cc1 | -16 | 103 | 69 | 88 | -2.5 | i | 0.96
O=C(CSc1ccc(-c2cccs2)nn1)Nc1ccccc1F | 2 | 101 | nt | nt | nt | i | 0.97
O=C(C[n+]1ccccc1)N1c2ccccc2Sc2ccccc21 | -6 | 48 | nt | nt | nt | i | 1
CCN(CC)C(=O)Cn1cnc([N+](=O)[O-])n1 | 3 | 102 | -38 | 88 | -2.4 | i | 0.88
CCc1ccc(C(C)NC(=O)c2ncn[nH]2)cc1 (stereo unspecified) | -17 | 110 | 11 | 160 | -0.6 | i | 0.93
Cc1ccc(C(=O)ON=C2CCN(c3ccc([N+](=O)[O-])cc3)CC2)cc1 | -7 | 104 | nt | nt | -1.2 | i | 0.87
Cc1nc(SCC(=O)N2CCN(C(=O)c3ccco3)CC2)c2c(C)c(C)sc2n1 | 2 | 99 | 40 | 107 | 0.4 | i | 1
O=C(CN1C(=O)/C(=C\c2ccc(F)cc2)Oc2ccccc21)N1CCN(c2ccccn2)CC1 | -5 | 97 | 19 | 59 | -2.6 | i | 1
O=C1NCCCC1C(=O)N/N=C/c1cccc(Cl)c1 (stereo unspecified) | nt | 100 | nt | nt | nt | i | 0.92
Cc1ccc(NC(=S)Nc2cc(-c3ccccc3)[nH]n2)cc1Cl | 2 | 103 | nt | nt | nt | i | 0.87
C/C=C/c1ccc(OCC(=O)OCC(=O)NC2CC2)c(OC)c1 | 4 | 97 | nt | nt | nt | i | 1
CCCC(=O)NC(c1ccc(OC)c(OC)c1)c1cc(Cl)c2cccnc2c1O (stereo unspecified) | -6 | 95 | nt | nt | nt | i | 0.99
CC(=O)N1CCc2c(sc(NC(=O)c3ccc4c(c3)OCCO4)c2C#N)C1 | -8 | 100 | -30 | 89 | 3.1 | i | 0.55
O=C(CC1C(=O)NCCN1Cc1cccc(Oc2ccccc2)c1)NCC1CCOCC1 (stereo unspecified) | 3 | 104 | nt | nt | nt | i | 0.94
CC1=C/C(=N\NC(=S)NCCc2ccccc2)CC(C)(C)C1 | 7 | 103 | 11 | 96 | nt | i | 0.98
CCCCCC(=O)Nc1cccc(C2=NOC3(C2)C[C@H](C(N)=O)N(C(=O)c2ccccc2C(=O)c2ccccc2)C3)c1 (stereo partly specified) | nt | 108 | nt | nt | nt | i | 0.74
Cc1cccc(NC(=O)c2ccc(S(=O)(=O)N3CCCCC3)cc2)n1 | nt | 96 | nt | nt | nt | i | 0.98
CCC(Sc1ccccc1C(=O)O)C(=O)O (stereo unspecified) | -4 | 99 | -8 | 104 | -1.8 | i | 0.97
Cc1cc2c(cc1C)N(C(=O)CN1C(=O)c3ccccc3C1=O)C(C)(C)c1ssc(=S)c1-2 | -6 | 99 | -109 | 107 | -0.4 | i | 0.78
N/C(=N\OC(=O)c1ccco1)c1cccc([N+](=O)[O-])c1 | -7 | 104 | nt | nt | nt | i | 0.98
CN1N=C(C(=O)N2CCc3c([nH]c4ccccc34)C2c2c(F)cccc2Cl)CCC1=O (stereo unspecified) | -3 | 98 | nt | nt | nt | i | 0.91
Cn1c(CN2CCCC2)nc2cc(NC(=O)COc3ccc([N+](=O)[O-])cc3)ccc21 | -6 | 136 | -167 | 65 | -1.5 | i | 1.1
Cc1cc(C)cc(NC(=O)CSc2nncn2-c2ccccn2)c1 | -2 | 100 | nt | nt | nt | i | 0.93
Cc1c(NC(=O)/C(C#N)=C/c2ccc(-c3cc(Cl)ccc3Cl)o2)c(=O)n(-c2ccccc2)n1C | 11 | 102 | nt | nt | -1.4 | i | 0.79
CCN(C(=O)CSc1nnc(NC2CCCCC2)s1)C1CCS(=O)(=O)C1 (stereo unspecified) | 0 | 101 | -34 | 181 | -1.8 | i | 1.1
Cc1ccc(OCCOC(=O)CCc2nc3ccccc3c(=O)[nH]2)cc1 | 1 | 94 | 63 | 92 | nt | i | 1.1
O=C(NCCc1ccc(F)cc1)N1CCOCC1 | -8 | 99 | 83* | 99* | -3.9 | i | 1.1
Cc1ccc(C)c(-n2c(-c3ccncc3)n[nH]c2=S)c1 | nt | 97 | nt | nt | nt | i | 0.98
CC(=O)c1nnn(-c2cccc(C#N)c2)c1C | nt | 100 | nt | nt | nt | i | 0.9
COc1cc(NC(=O)C2CCCN2C(=O)OCc2ccccc2)cc(OC)c1 (stereo unspecified) | -3 | 101 | nt | nt | -0.7 | i | 0.79
Brc1ccc(CSc2ccc3nnc(-c4cccnc4)n3n2)cc1 | -2 | 98 | nt | nt | nt | i | 0.86

Next section
SMILES | PKD1 kinase inh | RGS16-Gao | Insulin prom inh | Insulin prom inh cell count | GALR2 ag | HSV replic up | HSV replic up primary fold
CCc1ccc(N=c2c([N+](=O)[O-])nn(-c3ccccc3)n2O)cc1 | -6 | 91 | 33 | 95 | 0.3 | i | 1
COc1ccc(OC)c(Nc2cc(C(=O)NCCCN3CCOCC3)c3ccccc3n2)c1 | -1 | 86 | -60 | 68 | -4.3 | nt | nt
CCC(C)NCCOCCOc1ccc(C)cc1OC (stereo unspecified) | -5 | 136 | 29 | 86 | -2.4 | i | 0.91
O=C(Nc1nnc(-c2ccccc2F)s1)C1CCN(S(=O)(=O)c2ccc(Cl)cc2)CC1 | 4 | 53 | nt | nt | 0.4 | i | 1.2
O/N=C/c1cc(Br)cc(Br)c1OCc1ccccc1 | -3 | 104 | -23 | 115 | -2.0 | i | 0.92
O=C1C2CCCCC2C(=O)N1Cc1ccccc1 (stereo unspecified) | -11 | 108 | nt | nt | nt | i | 0.94
COc1ccccc1CN(C)CC(=O)Nc1ccc(Cl)cc1F | -4 | 101 | nt | nt | nt | i | 1
Cc1ccc(OCC(=O)NS(=O)(=O)c2ccccc2)cc1 | -7 | 98 | nt | nt | nt | i | 1
COC(=O)COc1cccc(NC(=O)c2ccc(Cl)cc2)c1 | -5 | 102 | nt | nt | nt | i | 0.91
C/C(CCCO)=N/Nc1ccc([N+](=O)[O-])cc1[N+](=O)[O-] | -6 | 100 | nt | nt | nt | i | 1.1
O=C(OCc1nc2ccc(Cl)cc2n1CCO)c1ccc2c(c1)OCO2 | 1 | 90 | nt | nt | -0.5 | i | 0.8
CC(C)c1[nH]c(=O)c(C#N)c2c1CSC(C)(C)C2 | 1 | 100 | nt | nt | -0.2 | i | 1.1
COc1ccc(C(C(=O)NC2CCCCC2)N(C(=O)c2ccco2)c2ccc(-n3cnnn3)c(C)c2)cc1 (stereo unspecified) | -15 | nt | nt | nt | -0.4 | i | 1
CCOc1ccccc1NC(=O)Cn1nnc(C(=O)Nc2ccc(C)cc2)c1N | -3 | 104 | 50 | 104 | -0.5 | nt | nt
Cc1cc(NC(=O)Cn2nc(-c3ccccc3F)ccc2=O)ccc1-n1cnnn1 | -4 | 103 | nt | nt | -1.2 | i | 1
Cc1nc2cc(N3CCOCC3)c(NC(=O)C3CC3)cc2c(=O)n1Cc1ccccc1 | 2 | nt | nt | nt | -0.5 | nt | nt
Nc1nc(SCc2ccc(Cl)c(Cl)c2)n[nH]1 | -8 | 84 | nt | nt | -1.8 | i | 0.9
CCOc1ccc2nc(NC(=O)CSc3ccccc3)sc2c1 | -7 | 103 | -11 | 118 | 0.6 | i | 1.1
CC/C(C)=N/NS(=O)(=O)c1ccc(C)c([N+](=O)[O-])c1 | nt | 101 | nt | nt | nt | i | 1.1
CCOc1ccccc1N1CCN(C(=O)Nc2ccc(Cl)c(Cl)c2)CC1 | 7 | 101 | 0 | 119 | -2.6 | nt | nt
CC1CCN(c2nc3ccccn3c(=O)c2C=O)CC1 | -10 | 101 | nt | nt | nt | i | 0.97

From PubChem
